B2AR ag: beta2AR agonists driving receptor internalization, primary screen, cell-based, FAP fluorogen, flow cytometry; Beta-2 adrenergic receptor (Homo sapiens), P07550; Am2.2-beta2AR cells; reference of the scale not given here; response, % (concentration not given with the values); hit rate 0.43% among 340,000; AID 504454, 2011;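 active = response above a set limit, near 3 SD of response in nonfluorescent compounds, cut at about 42% in these data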;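 note: stock transfer was 100 nL into about 11 µL; a reference agonist was the positive control; negative values mostly stem from fluorescent compounds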
Target sequence (P07550 whole entry, looked up): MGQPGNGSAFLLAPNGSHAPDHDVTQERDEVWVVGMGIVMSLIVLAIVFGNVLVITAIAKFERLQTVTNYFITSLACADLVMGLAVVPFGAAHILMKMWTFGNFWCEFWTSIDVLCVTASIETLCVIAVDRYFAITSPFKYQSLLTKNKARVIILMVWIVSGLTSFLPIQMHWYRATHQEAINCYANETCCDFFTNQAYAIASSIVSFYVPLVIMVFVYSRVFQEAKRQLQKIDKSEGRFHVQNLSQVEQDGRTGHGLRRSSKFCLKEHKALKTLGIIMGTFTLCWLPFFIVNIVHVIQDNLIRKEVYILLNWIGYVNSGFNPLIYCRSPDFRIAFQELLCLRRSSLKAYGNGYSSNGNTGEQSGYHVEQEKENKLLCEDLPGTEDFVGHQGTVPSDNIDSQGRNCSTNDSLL
T cruzi repl: inhibitors of intracellular T. cruzi growth, primary screen, luminescence, NIH3T3 host cells | AID 1885, 2009 | hit rate 1.4% among 300,000 | T. cruzi beta-gal in NIH3T3, 90 h | inhibition, % (no concentration beside the values);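 active = mean inhibition across valid replicates above about 55%, limit read from the data; inconclusive = mean below that limit but half or more replicates reach it; inactive = mean below it, under half of replicates reach it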;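 note: signal also drops with host cell toxicity which is not excluded here; 0% = plate median of DMSO wells and 100% = zero luminescence signal; higher percent means less beta-gal luminescence so fewer parasites; stock transfer was 50 nL into about 50 µL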
LANA-H2B inh: blockers of LANA interaction with H2A/H2B – biochemical, FP readout, HTS, primary screen. Protein LANA1 (Human herpesvirus 8 type P (isolate GK18)), Q9QR71. cell-free LANA-H2A/H2B peptide, fluorescence polarization. inhibition, % (concentration not given with the values). hit rate 0.6% among 320,000; in the data active = inhibition mostly above about 10%, no sharp cut-off; inactive = mostly below about 6.7%;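 note: stock transfer was 7.5 nL into about 10 µL; 0% = median of vehicle wells and 100% = median of positive control wells; one replicate is shown; the record names a cut of 25% in any replicate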
Calb FLC: C. albicans growth inhibition with fluconazole, primary screen, CaCi-2 strain, Alamar Blue fluorescence; C. albicans CaCi-2 (fluconazole-resistant clinical isolate) + fluconazole, 48 h; growth inhibition, % (no concentration beside the values); hit rate 0.57% among 300,000; AID 1979, 2009;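 active = most replicates above 75%; inconclusive = exactly half above 75%; inactive = most below 75%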;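 note: all wells also contain fluconazole at 8 µg/ml as a sub-toxic cotreatment; 0% = median of DMSO wells and 100% = median of geldanamycin control wells; wells of about 8 µL received 7.5 nL stock; the first replicate is given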
Beta cell apopt: inhibitors of cytokine-induced beta cell apoptosis, primary screen, luminescence; INS-1E cytokine-induced death, ATP luminescence, 48 h; percent of positive-control rescue, neutral wells zero; protection from apoptosis, % (no concentration beside the values); hit rate 0.8% among 300,000; AID 435005, 2010;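 active = all replicates at 75% or more, or half of them and the mean; inconclusive = half reach 75% but not the mean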;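 note: 0% = cytokine-treated negative control wells and 100% = positive control rescue; higher means more ATP so stronger rescue from cytokine killing; wells of about 40 µL received 100 nL stock; the first replicate is given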
RanGTP-Impb inh: inhibitors of RanGTP-importin-beta interaction, primary screen, biochemical, FRET, CFP-Ran, YFP-importin-beta, homogeneous. AID 2216, 2009. hit rate 1.1% among 300,000. cell-free CFP-Ran/YFP-importin-beta FRET ratio. Ran GTPase (GTP-bound) - importin-beta complex. inhibition, % (test concentration not listed);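 active = most replicates above 15%; inconclusive = exactly half above 15%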;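 note: 0% = DMSO wells and 100% = Ran loaded with GDP instead of GTP; wells of about 40 µL received 100 nL stock; the first replicate is given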
A1 inh: caspase 3/7 activation in MEF A1-2A-BIM cells, primary screen, A1 inhibitor project, cell-based, luminescence, HTS. Caspase-Glo 3/7 luminescence, 3 h; percent of clofoctol response, vehicle zero. caspase activation, % (concentration not given with the values). hit rate 0.066% among 330,000;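 active = over half of replicate activation scores above 10%, or exactly half above 10 with the replicate mean above 10; inconclusive = replicate mean below 10 yet half the replicates above 10; inactive = over half of replicates below 10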;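 note: wells of about 30 µL received 50 nL stock; many hits fall short of the cut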
UCH37 inh: inhibitors of human UCH37 deubiquitinase, primary screen, biochemical, Ub-AMC cleavage, fluorescence | purified proteasome/UCH37 | inhibition, % (no concentration beside the values) | hit rate 0.33% among 330,000 | AID 588478, 2011;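 active = mean of two replicates above 20%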;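 note: 0% = compound-free wells with enzyme and 100% = wells lacking proteasome; stock transfer was 100 nL into about 20 µL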
Target sequence (Q9Y5K5 whole entry, looked up): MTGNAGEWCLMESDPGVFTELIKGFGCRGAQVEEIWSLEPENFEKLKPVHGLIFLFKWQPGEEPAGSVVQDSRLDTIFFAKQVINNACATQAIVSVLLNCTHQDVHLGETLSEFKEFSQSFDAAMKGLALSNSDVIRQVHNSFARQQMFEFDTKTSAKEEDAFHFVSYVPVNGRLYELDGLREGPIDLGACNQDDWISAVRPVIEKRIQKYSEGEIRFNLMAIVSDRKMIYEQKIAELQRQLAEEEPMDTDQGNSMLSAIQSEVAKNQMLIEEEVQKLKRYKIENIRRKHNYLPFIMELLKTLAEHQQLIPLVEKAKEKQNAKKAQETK
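System: Proteasome-associated human UCH37 deubiquitinase; Input: 0.15 nM proteasome in added enzyme buffer; Also added: Ub-AMC substrate from 1 µM stock; Incubation: 30 min compound-proteasome preincubation then 25 min substrate reaction, room temperature; Detection: fluorescence, ex 355 nm, em 460 nm; Read-out: % inhibition of Ub-AMC cleavage fluorescence; Benchmarks: no-proteasome and no-compound wells.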
* marks the source's active call; other numbers are inactive results; ? = inconclusive; nt = not tested or not shown.

SMILES | B2AR ag | T cruzi repl | LANA-H2B inh | Calb FLC | Beta cell apopt | RanGTP-Impb inh | A1 inh | UCH37 inh
COc1ccc(S(=O)(=O)Nc2ccc(NC(C)=O)cc2)cc1 | 4 | -16 | 2.0 | -14 | -9 | ? | 3.1 | 0.7
O=C(CCc1nc2ccccc2c(=O)[nH]1)N1CCN(S(=O)(=O)c2ccc(F)cc2)CC1 | 3 | nt | -1.4 | nt | -11 | nt | 0.0 | 3.8
CCOc1ccccc1OCC(=O)Nc1cccc(S(=O)(=O)N2CCCCCC2)c1 | 19 | 18 | 6.5 | 17 | -5 | 2.1 | -0.3 | 3.0
Cc1c([N+](=O)[O-])cc(C(=O)NCc2ccc(F)cc2)cc1[N+](=O)[O-] | -17 | 12 | -0.8 | 0 | -1 | 0.9 | -0.3 | 3.4
Cn1c(O)c(N=NC(=O)c2ccco2)c2ccccc21 | -23 | -12 | -2.5 | -15 | 5 | 3.1 | -0.4 | 14
CCOC(=O)C1CCN(S(=O)(=O)c2cc(Br)cc3c2N(C(C)=O)C(C)C3)CC1 (stereo not given) | 6 | 19 | -0.8 | 2 | -1 | -5.5 | 0.4 | 5.3
Nc1nc(N2CCCCC2)c(C=O)c(N2CCCCC2)n1 | 5 | -15 | 0.4 | -14 | -1 | -1.9 | 0.7 | -0.1
CCN(CC(=O)NC(C)C)C(=O)Cc1ccc(C)c(C)c1 | -8 | -1 | 2.3 | -32 | 1 | 2.1 | 0.0 | 0.3
Cc1ccc(OCc2cc(C(=O)N(C)Cc3cc(C4CC4)n[nH]3)no2)cc1C | 2 | 5 | 0.8 | 1 | ? | -0.9 | 0.0 | 1.3
O=C1c2ccccc2C(=O)c2c1cccc2N1CCN(Cc2ccccc2)CC1 | 8 | 15 | 0.2 | -47 | 15 | 0.0 | -0.5 | 5.5
CSc1ccc(NC(=O)NCCN2CCc3ccccc3C2)cc1 | -10 | 13 | 0.3 | -19 | -9 | -0.1 | -0.2 | 1.5
C=C(C)C1CC=C(C)/C(=N/NC(=O)c2ccoc2C)C1 (stereo not given) | -25 | 3 | 1.6 | 0 | 5 | -0.5 | 0.3 | nt
COc1ccc(-c2nnc(SCc3ccc(C(=O)O)cc3)o2)cc1OC | 2 | -13 | -3.5 | -2 | -12 | -3.4 | -0.2 | 3.0
COc1ccc(-n2nc(C(=O)NCC(=O)NCC3CCCO3)c3ccccc3c2=O)c(OC)c1 (stereo not given) | 4 | -14 | -2.5 | 3 | -3 | ? | -1.1 | 4.9
O=C(c1cc(COc2ccc(F)cc2F)on1)N1CCN(C(=O)c2ccco2)CC1 | -15 | -6 | -4.0 | -9 | 5 | -1.4 | 0.3 | 4.2
CC(C)c1ccccc1-n1c(SCc2cc(=O)oc3ccc4ccccc4c23)nnc1-c1cccnc1 | -9 | 14 | 3.3 | 35 | 10 | ? | 0.6 | -77
COc1cc(NC(=O)c2ccccc2F)c(OC)cc1NC(=O)CN1CCOCC1 | 11 | 8 | 0.6 | 34 | 1 | -3.0 | -1.0 | -8.7
Cc1cc(C)n2nc(SCC(=O)c3cc(C)n(-c4cc(C)on4)c3C)nc2n1 | -5 | -4 | -4.4 | -2 | 54 | -1.9 | 0.4 | 1.1
Cc1ccc(SCCSc2ncccn2)cc1 | -5 | -10 | 0.3 | -1 | -2 | 0.9 | -2.3 | 3.8
Cn1c(COc2ccc(Cl)cc2)nnc1SCC(=O)NC1CCCCC1 | -9 | 17 | -6.3 | 14 | -10 | -3.8 | 0.4 | -0.7
O=C1c2ccccc2NC2(CCCC2)N1N=C1CCCC1 | 2 | -13 | 2.6 | -2 | 1 | 1.0 | 0.6 | -51
CC(=O)Oc1cc(C)cc2oc(=O)cc(-c3ccccc3)c12 | 22 | -20 | 3.5 | 0 | nt | -0.5 | 0.8 | 2.5
CC(C)C1Nc2ccc(S(=O)(=O)N3CCOCC3)cc2NC1=O (stereo not given) | -1 | -2 | 2.7 | ? | 0 | -3.3 | 0.4 | 2.9
Cc1[nH]n2c(=O)c3c(nc2c1-c1cccc2ccccc12)CCC3 | 20 | -5 | 7.6 | -1 | 15 | -1.6 | 0.3 | -7.5
Nc1nc(SCC(=O)c2cccs2)n[nH]1 | 2 | -8 | 1.8 | 52 | 3 | -0.4 | -0.1 | -0.3
SMILES | B2AR ag | T cruzi repl | LANA-H2B inh | Calb FLC | Beta cell apopt | RanGTP-Impb inh | A1 inh | UCH37 inh
Cc1ccc(CNC(=O)C2COc3ccccc3O2)cc1 (stereo not given) | -9 | -2 | 0.3 | 3 | -11 | 2.0 | -0.7 | 2.8
Cc1ccsc1/C=N/N1CCN(C2c3ccccc3-c3ccccc32)CC1 | 9 | 19 | 0.1 | -7 | 6 | -0.1 | 0.2 | nt
Cc1ccc(Cl)c(OCC(=O)N(C)CC(=O)Nc2ccc(N3CCOCC3)cc2)c1 | 0 | -9 | -4.6 | -9 | 1 | -1.6 | -0.9 | 3.3
COCCN=c1scc(-c2cccs2)n1/N=C/c1ccc(O)c(O)c1O | 29 | -3 | -4.3 | 20 | 20 | -14 | -0.3 | nt
COc1cc(OC)c(NC(=S)Nc2cc(Cl)cc(Cl)c2)cc1Cl | 2 | 24 | -7.7 | -9 | -11 | -1.9 | 0.1 | 6.5
O=C(O)c1ccc(NCc2nc3ccccc3n2CCOc2ccccc2Cl)cc1 | 2 | 6 | -2.7 | -20 | -8 | 1.5 | 0.5 | 1.2
CC(C)(C)CN1CCNC(=O)C1CC(=O)N1CCN(c2ccccc2)CC1 (stereo not given) | -7 | 5 | 1.3 | 1 | -3 | -4.8 | 1.2 | -10
C=CCn1c(SCC(=O)NC2CCCC2)nnc1-c1ccccn1 | -13 | 0 | -4.4 | -8 | -3 | ? | -0.1 | 2.1
CCN(CC)S(=O)(=O)c1ccc2c(c1)CC(C(=O)N1CCCC1)N2C(C)=O (stereo not given) | -4 | 16 | -12 | 2 | -3 | 0.1 | 0.7 | 0.8
CCOc1cc(/C=N/n2cnnc2)ccc1OS(=O)(=O)c1ccccc1 | -8 | 36 | 0.8 | -5 | 3 | nt | 0.4 | nt
Cc1ccc(S(=O)(=O)NCCOCCNS(=O)(=O)c2ccc(C)cc2)cc1 | 1 | 16 | 2.6 | 11 | -7 | 2.6 | 0.0 | 1.4
O=C(NCCC(=O)N(Cc1ccco1)Cc1cccs1)c1ccc(Br)cc1 | -8 | nt | 2.1 | nt | 3 | nt | 0.0 | -2.2
COc1ccc(C(=O)Nc2ccccc2)cc1S(=O)(=O)Nc1cc(C)on1 | -1 | 6 | 0.4 | -48 | -3 | -0.4 | -0.1 | 6.2
CCC(=O)Nc1nnc(C)s1 | -5 | -9 | nt | -4 | nt | ? | nt | -1.7
COc1cc(C(=O)NCCN2C(=O)S/C(=C\c3ccc(F)cc3)C2=O)ccc1OCC(=O)N1CCOCC1 | nt | -3 | -1.8 | 1 | -5 | -4.6 | 2.2 | 1.2
CC(OC(=O)CCCN=C1NS(=O)(=O)c2ccccc21)C(=O)NC1CCCCC1C (stereo not given) | -2 | -7 | -2.8 | -4 | -14 | 3.3 | 0.1 | 1.1
O=C(CN1C(=O)CCS(=O)(=O)c2ccccc21)NCCc1ccccc1 | -1 | -11 | -0.6 | -34 | -5 | 0.3 | 1.0 | 3.9
S=C(Nc1ccc2nsnc2c1)N1CCCCC1 | -2 | nt | 6.5 | nt | 2 | nt | -7.2 | 7.1
CC(/C=C/C(=O)c1ccc(C)cc1)=C\c1ccccc1 | -1 | 2 | 0.6 | -14 | -7 | -2.6 | 0.3 | 1.2
CCCCn1c(N)c(N(CC(C)C)C(=O)c2cccc(S(=O)(=O)N3CCN(C)CC3)c2)c(=O)[nH]c1=O | 2 | -4 | nt | 4 | -3 | -0.9 | -0.1 | 3.0
COc1ccc(NC(=O)C(NS(=O)(=O)c2ccc3c(c2)CCCN3C(C)=O)C(C)C)c(OC)c1 (stereo not given) | 5 | 10 | 2.3 | -22 | -4 | -0.9 | -0.6 | 2.4
CC1CCN(CCCNC(=O)C2CCN(S(=O)(=O)N3CCCCC3)CC2)CC1 | 4 | 0 | 2.8 | 17 | 0 | -0.7 | -1.7 | 1.4
O=C(CSc1nc(-c2ccco2)cc(C(F)(F)F)n1)N1CCN(c2ccc(Cl)cc2)CC1 | -3 | 32 | 3.3 | 5 | -2 | -5.0 | -0.4 | -4.3
Cc1cc(Cl)c(OCCOCCN2CCCC(C)C2)c(Br)c1 (stereo not given) | 6 | 73* | 0.1 | 3 | nt | 0.7 | 1.3 | 2.9
COc1ccc(Cl)cc1N1C(=O)CC(N2CCN(S(=O)(=O)c3ccccc3F)CC2)C1=O (stereo not given) | 3 | nt | 5.2 | nt | -4 | nt | -0.2 | 1.2
SMILES | B2AR ag | T cruzi repl | LANA-H2B inh | Calb FLC | Beta cell apopt | RanGTP-Impb inh | A1 inh | UCH37 inh
CSc1nnc(CCNS(=O)(=O)c2ccccc2Br)n1C | 0 | -5 | 0.2 | -5 | -3 | 2.7 | 0.9 | -0.3
CC(C)N1CCN(Cc2cccn2-c2nccs2)CC1CCO (stereo not given) | 3 | 14 | 9.7 | -6 | 0 | ? | -0.6 | 4.1
CCn1c(=O)c(C(=O)NNS(=O)(=O)c2ccc(NC(=O)OC)cc2)c(O)c2ccccc21 | 0 | -4 | -0.1 | -3 | 0 | 0.0 | -0.1 | 1.8
O=C(O)c1ccc(NCCc2ccc(Cl)cc2)c([N+](=O)[O-])c1 | 24 | 18 | 3.9 | 0 | -4 | -3.4 | -1.1 | 8.6
COc1ccc(-c2ccc3c(c2)S(=O)(=O)c2cccc(C(=O)NC4CCCC4)c2C3=O)cc1OC | -8 | nt | 3.8 | nt | 23 | nt | 0.2 | -1.1
N/C(=N\OC(=O)c1cccc(Cl)c1)c1ccccn1 | -6 | -11 | 4.9 | 8 | 7 | -3.9 | -7.6 | 2.2
Cc1cccnc1NC(=O)c1c(O)c2cccc3c2n(c1=O)CCC3 | -1 | -3 | 4.8 | 51 | 16 | 6.7 | 0.6 | 0.7
CCN(C(=O)Cn1c(=O)oc2ccccc21)C1CCS(=O)(=O)C1 (stereo not given) | -1 | -7 | 0.3 | -6 | -7 | 1.7 | 0.5 | 3.7
CN(C)CCCN(C(=O)c1cc(Cl)sc1Cl)c1nc2cc3c(cc2s1)OCO3 | 13 | 31 | 5.2 | 0 | -9 | -7.0 | 0.5 | 4.5
CCCCCn1c(CN2CCN(C(=O)c3ccco3)CC2)nc2c1c(=O)n(C)c(=O)n2C | -9 | 7 | -0.6 | -3 | -11 | 2.1 | -0.1 | 3.8

Source: PubChem
